Screening results deposited in PubChem by National Center for Advancing Translational Sciences (NCATS).
PINK1 modulator: A Quantitative High throughput Screen to Identify Chemical Modulators of PINK1 Expression; PINK1 immunofluorescence, high-content cytometry, 24 h; Potency, µM (titrated, usually from 76.6 µM), without a hit: top-dose activation (PINK1 increase), most hits filed as activators; 410,000 compounds, 0.2% hits; active = well fitted activation curve with a large enough effect; inconclusive = small, poorly fitted or top-dose-only effect; inactive = flat fitted curve, though single readings scatter; cell line not stated here;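 also: potency is read from the fitted curve at half-maximal effect; % of control where 0% means no effect; nearly all actives have a fitted effect of over 65% in size; a mitochondrial uncoupler was the plate control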
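Cells are seeded, rested 12 hours, then given compound at five concentrations or DMSO for 24 hours. After fixation, blocking and antibody staining, PINK1 amount and mitochondrial localization are scored; CCCP serves as control.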
TRPML1 agonist: qHTS for Agonists of the Human Mucolipin Transient Receptor Potential 1 (TRPML1); TRPML1-expressing cells, Ca2+ dye fluorescence, FDSS; host cell line not named in the record; reference of the full effect not given here; activation, % (concentration not given with the values); 410,000 compounds, 0.12% hits; in the data active = activation above about 50%; inconclusive = about 30% to 50%; inactive = below about 30%; also: 0% is about no effect; the text of the record puts the active cut at 80%
Target sequence (Q9GZU1 whole entry, looked up): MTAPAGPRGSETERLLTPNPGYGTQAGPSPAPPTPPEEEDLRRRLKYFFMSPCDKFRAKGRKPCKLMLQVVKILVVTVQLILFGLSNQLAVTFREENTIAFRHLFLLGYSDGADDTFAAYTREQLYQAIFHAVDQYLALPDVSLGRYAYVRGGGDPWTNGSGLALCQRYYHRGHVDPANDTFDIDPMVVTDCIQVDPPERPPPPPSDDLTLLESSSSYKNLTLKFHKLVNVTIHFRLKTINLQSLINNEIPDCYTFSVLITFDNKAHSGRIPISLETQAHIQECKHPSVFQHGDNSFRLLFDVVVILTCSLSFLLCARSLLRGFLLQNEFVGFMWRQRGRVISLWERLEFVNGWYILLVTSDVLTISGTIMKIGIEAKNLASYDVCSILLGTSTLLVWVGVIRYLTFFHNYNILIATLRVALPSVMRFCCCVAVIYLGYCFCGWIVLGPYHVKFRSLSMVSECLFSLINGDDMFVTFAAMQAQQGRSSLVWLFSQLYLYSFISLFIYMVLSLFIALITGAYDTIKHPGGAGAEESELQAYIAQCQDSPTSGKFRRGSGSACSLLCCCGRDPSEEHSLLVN
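Cells: TRPML1-DL, 1X Tet inducer, ~16 h at 37 degrees C/5% CO2. Dye: ABD Ca8 no-wash + quencher, 45-90 min RT. Read: 10 s baseline, compound add, 110 s agonist phase; 54-4 EC80 (4uM final), 110 s antagonist phase.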
D2 PAM: Beta-Arrestin HTS for Positive Allosteric Modulators of the Human D2 Dopamine Receptor: Potentiators; 360,000 compounds, 0.23% hits; D(2) dopamine receptor (Homo sapiens), P14416; DiscoveRx D2 beta-arrestin cells, luminescence, 90 min; 100% = 57 uM dopamine signal; potentiation, % (test concentration not listed); active = potentiation of 50% or more; inconclusive = 30% to 50%; inactive = 30% or less;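 also: compound concentration not given in the record; tested on top of an EC20 dose of dopamine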
Target sequence (P14416 whole entry, looked up): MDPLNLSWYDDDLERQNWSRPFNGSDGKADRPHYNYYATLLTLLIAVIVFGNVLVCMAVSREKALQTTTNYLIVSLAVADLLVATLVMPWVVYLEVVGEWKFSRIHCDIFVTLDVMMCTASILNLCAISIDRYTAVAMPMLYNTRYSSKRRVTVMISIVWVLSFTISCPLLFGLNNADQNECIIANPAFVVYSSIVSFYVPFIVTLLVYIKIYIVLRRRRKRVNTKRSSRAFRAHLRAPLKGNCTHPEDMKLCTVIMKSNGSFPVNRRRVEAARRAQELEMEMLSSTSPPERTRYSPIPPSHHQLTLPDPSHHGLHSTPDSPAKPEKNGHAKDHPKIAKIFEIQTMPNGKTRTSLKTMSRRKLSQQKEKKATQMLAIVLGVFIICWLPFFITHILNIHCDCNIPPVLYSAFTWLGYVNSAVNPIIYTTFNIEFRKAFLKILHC
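PathHunter beta-arrestin assay in DiscoveRx D2 cells. Compounds were added with an EC20 of dopamine (50 nM final) for 90 min at 37 deg C. Luminescence was read 1 h after detection reagent, with 57 uM dopamine as the EC100 control.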
D2 agonist: Beta-Arrestin HTS for Positive Allosteric Modulators of the Human D2 Dopamine Receptor: Agonists; D(2) dopamine receptor (Homo sapiens), P14416; DiscoveRx PathHunter D2 beta-arrestin, luminescence, 90 min; 100% = 57 uM dopamine signal; activation, % (test concentration not listed); 360,000 compounds, 0.084% hits; in the data active = activation above about 40%; inconclusive = about 15% to 40%; inactive = below about 15%; also: compound concentration not given in the record; the text of the record calls up to 30% inactive
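DiscoveRx PathHunter D2 beta-arrestin cells (2,100/well) attached overnight, then compound-stimulated 90 min at 37 C in HBSS/10 mM HEPES/0.1% Tween-20 buffer; beta-galactosidase complementation read by luminescence after 1 h at ambient temperature. Dopamine 57 uM final (EC100) as control.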
Six1-Eya2 blk: qHTS Assay for Inhibitors of the Six1/Eya2 Interaction; AID 651725, 2012; Homeobox protein SIX1 (Homo sapiens) + Protein phosphatase EYA2 (Homo sapiens), …; AlphaScreen GST-Six1/His-Eya2 binding, biochemical; stronger effect = lower value; control for the full effect not named in the record; 360,000 compounds, 0.56% hits; activity change, % (concentration not given with the values); in the data active = activity change below about -65%; inconclusive = about -30% to -65%; inactive = above about -30%; also: % is scaled to controls: 0 for no effect and ±100 for the full control effect
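Homogeneous AlphaScreen proximity assay pairing GST-Six1 with His-tagged Eya2 (added as 5X mix: 250 nM and 500 nM) in 50 mM Tris pH 8.0, 300 mM NaCl, 1 mM TCEP. Glutathione donor and nickel acceptor beads; 1 h, 37 °C, dark.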
TRPML1 inh: qHTS for Inhibitors of the Human Mucolipin Transient Receptor Potential 1 (TRPML1). Mucolipin-1 (Homo sapiens), Q9GZU1. TRPML1-inducible cells, Ca2+ dye fluorescence, FDSS; stronger effect = lower value; inhibition of EC80 agonist-evoked calcium signal. activity change, negative = inhibition, % (test concentration not listed). 390,000 compounds, 0.02% hits; in the data active means activity change below about -50%; inconclusive means about -30% to -50%; inactive means above about -30%;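 also: stimulus is agonist 54-4 at its EC80 concentration; % is scaled to controls: 0 for no effect and ±100 for the full control effect; compound concentration not given in the record; the text of the record puts the active cut at -80%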
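Calcium fluorescence in TRPML1-DL cells induced overnight with Tet: a 110 s read after compound pin addition, then a 110 s antagonist read after challenge with 54-4 at 4 uM final (EC80).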
The depositor's hits bear a star; ? = inconclusive; . = no result given; [ ] = dose if it differs, or a comment. An unsorted share of the library. Share with any hit: about 1%.

SMILES	PINK1 modulator	TRPML1 agonist	D2 PAM	D2 agonist	Six1-Eya2 blk	TRPML1 inh
Cc1cc(C)c(NC(=O)C2CCCN(C(=O)c3cnn(-c4ccccc4)c3-n3cccc3)C2)c(C)c1 (stereo unspecified)	0.6%	-1.2	.	.	.	31.8
COc1ccc(NC(=O)C2Cc3c(-c4cccc(F)c4)ccnc3O2)cc1OC (stereo unspecified)	6.3%	-1.0	1.6	11.8	-11.8	.
CC1(C(=O)OCC(=O)Nc2nc(-c3ccc(F)c(F)c3)cs2)CC1(Cl)Cl (stereo unspecified)	?	1.0	-2.0	1.1	-1.4	11.0
CCOC(=O)c1cc(-c2ccccc2)n(CCC(=O)N2CCN(c3ccccc3OC)CC2)c1C	-0.6%	1.0	-6.6	-5.2	?	1.4
COc1cc(/C=N/NC(=O)c2cnn3c(C)cc(-c4ccccc4)nc23)ccc1O	?	0.4	1.7	0.1	-24.2	-11.6
CC(C)OC(=O)CSc1nnc(-c2ccccc2)n1N	.	-0.1	-5.7	1.6	4.7	2.8
O=C(CCCc1c[nH]c2ccccc12)Nc1ccc2ccccc2c1	-0.3%	0.7	16.2	-0.4	-2.6	-0.4
Brc1cnc(OCc2ccccc2)nc1OCc1ccccc1	16.2%	2.3	-3.7	0.4	57.7	4.7
CCOC(=O)n1c(=O)n(Cc2cccc(C)c2)c2ccccc21	1.1%	4.2	-3.5	-0.6	2.7	45.7
O=C1CSc2ccc(C(=O)Nc3cccc(S(=O)(=O)Nc4ccc(Br)cc4)c3)cc2N1	26.7%	0.8	-3.0	9.4	-27.4	5.8
Cn1c(=O)cc(C(=O)N/N=C/c2ccc(F)cc2)[nH]c1=O	0.4%	0.5	-9.5	1.9	-2.5	9.7
CCOc1c(OC)cccc1C1CC(=O)Nc2cc(OC)c(OC)cc21 (stereo unspecified)	3.8%	-1.0	-7.4	-7.9	-9.6	10.1
N#C/C(=C\c1cccc(OCC(=O)O)c1)c1nc2ccccc2[nH]1	1.4%	-0.4	-1.0	3.4	-14.7	4.2
Cc1ccc(CNC(=O)c2nc(SCc3ccccc3C)ncc2Cl)cc1	0.5%	2.6	.	.	.	-3.8
CCOC(=O)c1c(S(=O)(=O)N2CCC(C(=O)NCc3cccc(OC)c3)CC2)c(C)n(C)c1C	-0.7%	-1.2	.	.	.	-13.5
O=C(COc1ccc(-c2ccccc2)cc1)N1CCCC1	1.2%	-0.3	3.2	0.8	-2.3	-6.2
CCc1ccc(NC(=O)C2CCN(S(C)(=O)=O)CC2)cc1	.	-0.4	2.9	1.3	1.0	7.2
CNC(=O)c1ccc(=O)n(Cc2cccc(C(F)(F)F)c2)c1	2.7%	-0.2	-0.2	0.4	4.9	-22.4
CC1(C)CC2CC(C)(CN2C(=O)COC(=O)c2ccc(Cl)c(N)c2)C1 (stereo unspecified)	1.1%[38.3 µM]	-0.5	-7.6	-0.8	1.4	-1.1
Cc1cc(=O)oc2cc(OCC(=O)NC3CCN(Cc4ccccc4)CC3)ccc12	0.9%	-0.3	-14.6	-1.8	1.2	16.7

Ordered by SMILES length (low to high): part of the list above
SMILES	PINK1 modulator	TRPML1 agonist	D2 PAM	D2 agonist	Six1-Eya2 blk	TRPML1 inh
O=C(COc1ccc(-c2ccccc2)cc1)N1CCCC1	1.2%	-0.3	3.2	0.8	-2.3	-6.2
CNC(=O)c1ccc(=O)n(Cc2cccc(C(F)(F)F)c2)c1	2.7%	-0.2	-0.2	0.4	4.9	-22.4
N#C/C(=C\c1cccc(OCC(=O)O)c1)c1nc2ccccc2[nH]1	1.4%	-0.4	-1.0	3.4	-14.7	4.2

The list continues:
SMILES	PINK1 modulator	TRPML1 agonist	D2 PAM	D2 agonist	Six1-Eya2 blk	TRPML1 inh
Cc1ccc(-c2nnc(Nc3ccc4c(c3)nc(C)n4C)c3ccccc23)cc1	.	1.4	-0.5	-1.0	-8.5	-0.4
CCN(CC)Cc1cc(C(C)=O)ccc1OCC(C)C	0.0%	0.6	-11.3	-3.7	8.5	11.3
O=CN1c2ccccc2CSc2ccccc21	0.0%	1.1	3.3	-1.6	3.6	-20.4
CCN1N=C(c2ccccc2)Cn2c1nc1ccccc12	2.3%	2.7	-3.1	-4.4	44.0	-9.6
CCOc1nc(-c2ccc(Cl)cc2Cl)ccc1C#N	2.0%	0.9	3.6	-3.6	4.7	0.5
Cn1cc(CCC(=O)N2CCCC(CCC(=O)NCc3ccccc3F)C2)cn1 (stereo unspecified)	1.9%	-0.4	-8.4	-1.9	5.9	-11.2
Cc1ccc(NC(NC(=O)c2ccccn2)C(Cl)(Cl)Cl)cc1 (stereo unspecified)	-0.9%[38.3 µM]	0.5	-7.9	-3.1	0.6	-6.7
Nc1nn2cc(-c3ccc(Br)cc3)nc2c2ccccc12	1.7%	0.0	-12.8	0.2	-4.0	-6.6
Cc1ccc(OCCCC(=O)Nc2nncs2)cc1	6.0%	0.2	-25.3	2.2	-2.0	-9.1
COc1cccc(C2C(C#N)=C(N)Oc3cc(N)ccc32)c1OC (stereo unspecified)	2.9%	1.0	-17.0	0.0	-10.8	-18.1
Cc1cc(Cl)c2oc(C(=O)N(C)CCc3cnn(C)c3)c(C)c2c1	1.6%	-0.6	-7.0	-3.2	0.2	26.8
COc1ccc2oc3cc(C)[n+]([O-])c(-c4ccc(C)cc4)c3c2c1	4.1%	-0.8	-11.5	-8.0	2.5	3.9
CCCC(C(=O)NCc1ccc(OC)cc1)N(Cc1ccco1)C(=O)c1snc(C(N)=O)c1N (stereo unspecified)	1.1%[38.3 µM]	0.4	-7.0	-0.6	1.1	7.4
O=C(NCCc1ccc2c(c1)OCCO2)c1cccc(F)c1	2.3%	2.4	-1.9	-4.0	2.7	13.9
COc1cc2cc(-c3ccc(OC)c(OC)c3C)nc(N)c2cc1OC	7.1%	1.2	-6.7	-0.2	-22.6	19.1
O=C(O)CSc1nnc(COc2cccc3ccccc23)o1	1.4%	-0.2	-0.4	1.7	-9.2	-9.2
Cc1ccc2c(c1)-c1c(ssc1=S)C(C)(C)N2C(=O)CSc1nncn1C	-3.7%	-0.9	-22.3	-4.9	?	-16.4
O=C(CNC(=O)c1ccc(S(=O)(=O)N2CCCCC2)cc1)N/N=C/c1ccco1	2.5%	-0.2	-1.2	-2.5	2.7	14.0
CCOC(=O)C(C(C)=O)C(c1ccc(OC)cc1)C(C(C)=O)C(=O)OCC (stereo unspecified)	-1.9%	0.7	-16.6	3.0	7.0	14.6
Fc1ccc(C2=CC(c3ccco3)n3ncnc3N2)cc1 (stereo unspecified)	-0.6%	4.0	-0.7	-0.7	-2.1	35.7
O=C(CN1CCCCC1)Nc1c2c(nc3ccccc13)N(c1ccccc1)CC2	-2.5%	2.0	-3.6	3.4	6.9	51.1
CC(C)C(=O)Nc1ncc(Cc2ccc(Cl)cc2)s1	0.3%	1.6	-1.7	2.9	-3.4	44.2
CC1(C(=O)NCc2ccccn2)CCN1C(=O)Cc1ccc(Cl)cc1Cl (stereo unspecified)	-1.4%	-0.5	-3.4	-2.7	2.3	.
C[C@@H]1CNC(=O)c2c(C(=O)N[C@@H](Cc3c[nH]c4ccccc34)C(=O)OC(C)(C)C)ncn21	2.8%	0.2	10.3	-2.1	?	-4.0
COc1ccc(CNC(=O)Nc2cc(C)cc(C)c2)cc1	-0.3%	-0.6	-10.6	-2.6	4.1	0.8
Nc1nc(SCC(=O)O)[nH]c(=O)c1NC(=O)c1ccco1	1.6%	0.2	-19.0	-1.5	1.2	32.5
COc1ccc(Cl)cc1NC(=O)NCCN1CCCCC1	-1.7%	-0.2	-8.5	-2.3	-4.1	5.6
O=C(CCl)NCc1cc(-c2ccc(Cl)cc2)no1	-1.0%	-0.4	-2.6	-2.8	-5.7	-13.1
CCN(CC)S(=O)(=O)c1ccc(S(=O)(=O)Nc2ccc3c(c2)oc2ccccc23)cc1	-0.6%	0.2	10.3	-2.1	-14.8	-21.7
CCc1nc2cccnc2n1-c1ccc(CC(=O)Nc2cccc(C)c2C)cc1	-0.2%	2.1	.	.	.	?
CN(CC(=O)Nc1ccccc1C(=O)NC1CC1)Cc1ccc(Cl)cc1	-1.4%	-0.2	0.4	1.7	1.0	-12.5
CC(/C=C/c1ccco1)=N\NC(=O)COc1ccc(C)c(C)c1	-1.9%	0.4	-4.1	0.1	-4.9	15.9
CCOc1ccccc1NC(=O)C(C)Sc1nc2c(c(=O)[nH]1)CCCC2 (stereo unspecified)	3.7%	4.1	.	.	.	16.9
COc1ccc(CCC(=O)NNC(=O)Nc2ccc(C(C)=O)cc2)cc1	-0.9%	-0.1	-15.5	?	-7.3	4.2
CCOC(=O)c1ccccc1NC(=O)c1nn(C)c2c1COc1ccccc1-2	0.0%	0.7	.	.	.	-5.4
CCOC(=O)c1c(C)nc2c(c1-c1ccccc1)C(=O)CCC2	-1.2%	1.5	4.6	1.2	11.0	6.9
Cc1cccc(OC(C)C(=O)OCC(=O)N2CCN(c3ccccc3)CC2)c1 (stereo unspecified)	1.9%	-0.7	-10.2	-2.0	-9.6	-11.0
CN(CC(=O)Nc1cccnc1)S(=O)(=O)c1ccc(Br)cc1	0.3%	-0.5	-29.5	-1.1	-1.3	15.3
Cc1ccc(S(=O)(=O)N(C)C)cc1NC(=O)COC(=O)CC1CCCC1	3.4%	-0.4	-39.7	-5.8	5.9	-3.6
CCOC(=O)c1sc(N)c(C(N)=O)c1C	-0.2%	0.0	4.3	6.1	-3.8	-18.2
Nc1cccc(C(=O)OCC(=O)NC2CCCc3ccccc32)c1 (stereo unspecified)	1.1%	0.0	-1.6	-1.2	0.4	-8.1
CC(Oc1ccc(Cl)cc1Cl)C(=O)NC1CCSC1=O (stereo unspecified)	0.5%	1.3	-4.1	-3.9	0.8	-20.9
COc1cccc(OCCn2cc(/C=N/NC(=O)c3ccncc3)c3ccccc32)c1	28.8%	1.0	0.0	1.6	-14.3	-9.8
O=C(CCCCCn1c(=S)[nH]c2ccc(N3CCOCC3)cc2c1=O)NCc1ccc(Cl)cc1	9.7%	0.0	-0.9	0.4	0.4	3.0
COc1cccc(-c2nnc(SCC(=O)N3CCOCC3)o2)c1	0.6%	-0.2	-4.1	0.2	-4.3	12.0
COCCSc1ccccc1C(=O)Nc1cccnc1	1.2%	-0.6	-16.9	-4.1	-1.4	-2.1
O=C(CNC(=O)c1ccc(OC(F)F)cc1)NCC1(N2CCOCC2)CCCCC1	-1.3%	-0.1	-2.1	-5.3	0.7	0.5
Clc1ccccc1-c1ccc(/C=N/Nc2nncc(-c3ccccc3)n2)o1	13.5%	3.7	-17.2	-6.3	-7.5	51.4
Cc1cccc2c(CC(=O)O)noc12	-2.2%	0.2	-17.8	-1.2	10.5	-10.2
